CapD inh: blocks the Bacillus anthracis CapD enzyme. purified CapD enzyme, fluorescence intensity read-out; hits give low values; some hits fall short of the stated cut. AID 492967. 0.23% of 140,000 active. z-score (concentration not given with the values);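 active means z-score under -4 in either of two replicates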;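 further: stock transfer was 100 nL into about 40 µL; score is relative to mean and spread of the plate; one replicate is shown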
AID504770: growth inhibitors of E. coli YBA685 in a screen for V. cholerae RctB (chromosome II replication) inhibitors; E. coli YBA685 rctB-dependent plasmid, OD600 growth, 3 h; hits give low values; z-score (concentration not given with the values); 0.27% of 130,000 active; AID 504770;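 active means z-score under -2 on both plates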;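 further: wells of about 30 µL received 100 nL stock; score is relative to mean and SD of the test wells; the first replicate is given; strong numbers were not always called active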
Numbers without * were called inactive; / = not tested or not shown.

Every second line gives: CapD inh, AID504770
> COCC(C)n1c(=S)[nH]c2ccccc2c1=O (stereo not given)
 : /, -0.85
> CSCc1nc2sc(C(=O)NC3CC3)c(C)c2c(=O)[nH]1
 : /, -0.2
> CCOc1cc2[nH]c(=S)n(CC(OCC)OCC)c(=O)c2cc1OCC
 : -0.03, -1.2
> C=C(Br)CSCc1nc2ccccc2[nH]1
 : 0.57, 0.05
> Cc1ccc(NC(c2cccc(Cl)c2)c2nnnn2C(C(Oc2ccc(Cl)cc2)n2cncn2)C(C)(C)C)cc1 (stereo not given)
 : 0.11, /
> Cc1ccc2nc(N=C(N)N)[nH]c2c1
 : /, -0.9
> CCC(C)C(=O)N1c2c(C)cc(C)cc2C(=C2SC(C(=O)OC)=C(C(=O)OC)S2)C(=S)C1(C)C (stereo not given)
 : 0.41, /
> CC1=NC2(CCN(CC(O)COc3ccccc3)CC2)N=C1c1cccc(C(F)(F)F)c1 (stereo not given)
 : 0.01, /
> CCCCOC(=O)c1ccc(NC(=O)c2cc3cc(Br)ccc3oc2=O)cc1
 : 0.33, /
> CC(C(=O)NCCc1c[nH]c2ccccc12)N1Cc2ccccc2C1=O (stereo not given)
 : -0.99, 0
> CCCn1c(N)c(C(=O)CSc2ncc(C(F)(F)F)cc2Cl)c(=O)[nH]c1=O
 : /, -0.25
> Cc1cccc(Cl)c1S(=O)(=O)NCc1ccccc1OC(F)(F)F
 : -0.12, /
> COC(=O)Cc1c(C)ncnc1OCC(=O)Nc1ccc2c(c1)OCCO2
 : -0.86, -0.6
> Cc1cc(NC(=O)c2ccc(NC(=O)C(C)C)cc2)no1
 : /, -0.15
> O=C(CN1C(=O)C2C3C=CC(C3)C2C1=O)N[C@@H](Cc1ccccc1)c1nc2ccccc2[nH]1 (stereo not given in full)
 : /, 0.15
> CN(C(=O)CSc1nncc2ccccc12)c1ccccc1
 : -0.33, -0.15
> NC(N)=NC(=O)c1ccc(N)cc1
 : /, 0.3
> Cc1cc2c(NC(=O)c3ccccc3C(=O)O)cccc2nn1
 : 0.9, 2.5
> CCOc1cc(N2CCOCC2)c(OCC)cc1NC(=O)c1cccc(-n2cnnn2)c1
 : /, -0.2
> CCC(=O)N1c2ccccc2NC2=C(C(=O)CC(c3ccc(C)cc3)C2)C1c1cccc(OC)c1 (stereo not given)
 : 2.3, /
> CC(=O)Nc1ccc(OCCCl)c(OCCCl)c1
 : -0.38, -0.5
> C=CCSc1nc(Sc2ccccc2)c2sc3ccccc3c2n1
 : 1.4, /
> O=C1c2ccccc2C2NCCCN12 (stereo not given)
 : 0.32, /
> Cn1c(CSCc2nc(-c3ccc(Cl)cc3)cs2)n[nH]c1=S
 : -0.23, 2.2
> COc1ccccc1OCCn1c(N)nc2ccccc21
 : -0.015, -0.8
> COc1cccc(OCC(=N)N)c1
 : /, -0.15
> CNC(=O)COCC(=O)N1CCC(c2nc(-c3cccnc3)no2)CC1
 : -0.65, /
> CCc1ccc(-n2cnc3cc(C(=O)NCCc4ccccc4)ccc32)cc1
 : -0.94, 1.4
> O=C(COc1ccc(F)cc1)Nc1ccc(-n2cnnn2)cc1
 : -0.14, 2.2
> c1ccc2c(c1)SCc1nnc(-c3ccncc3)n1-2
 : 0.025, -0.6
> CC(C)(C)C1(C)OC(CO)C(CO)O1 (stereo not given)
 : -0.1, -0.3
> CCCCCN1C(C)=CC(=C(C#N)C#N)C=C1C
 : /, 1.4
> c1ccc(CCn2c(Cc3cccs3)nc3ccccc32)cc1
 : /, -1.5
> CCOC(=O)C1=c2s/c(=C/c3cccc(Br)c3)c(=O)n2C(N)=C(C#N)C1c1cccc(Br)c1 (stereo not given)
 : -1.6, /
> CN(C)C(=O)Nc1ccc(Cl)cc1
 : /, 0.8
> CCC1(C)C2CCC1(C)C(NC(=O)c1ccccc1)(C(=O)O)C2 (stereo not given)
 : /, 2.3
> O=C(CCCSc1nc2ccccc2[nH]1)NCc1ccco1
 : /, -0.3
> CSc1ccc(C2C(C#N)=C(N)Oc3c2ccc(=O)c2c(C)oc(C)c32)cc1 (stereo not given)
 : -0.23, 1.9
> Cc1cc(C)cc(NC(=O)C2CCCC2)c1
 : /, -0.8
> C(=Nc1nc2ccccc2nc1N1CCCC1)N1CCOCC1
 : /, 0.4
> COC(=O)C(C(=O)OC)C1(C)CCC(OC)C1(C)C (stereo not given)
 : /, -0.75
> COC(=O)c1cn(NC(=O)C2CCCO2)c(=O)c2ccccc12 (stereo not given)
 : -1.2, /
> COc1ccc(C(=O)NC(c2c(C)[nH]n(-c3ccccc3)c2=O)(C(F)(F)F)C(F)(F)F)cc1
 : 0.64, -0.25
> O=C(N/N=C/c1ccccc1Cl)N/N=C/c1ccccc1Cl
 : -0.57, /
> CCN1/C(=C/C=C/c2n(CC)c3cc(Cl)ccc3[n+]2Cc2ccccc2)N(Cc2ccccc2)c2ccc(Cl)cc21
 : -0.11, /
> O=C(O)CCc1ccc(-c2ccc(F)cc2)[nH]1
 : 12, 0.15
> COC(=O)c1c(C(=O)OC)c(-c2ccc(C)cc2)n2c1CS(=O)(=O)C2
 : 0.21, /
> CCOC(=O)c1ccc(N=Cc2nc3ccccc3n2C)cc1
 : 0.015, -0.5
> O/N=C(\c1ccccc1)c1nccc2ccccc12
 : /, -0.55
> CC(C)(C)C(=O)OCc1noc(-c2ccccc2)n1
 : -0.17, /
> Cc1ccc(Cc2cnc(CN3CCCCC3)c(O)c2)cc1
 : 0.34, -0.85
> C=CCn1c(NCc2ccccc2)nc2ccccc21
 : -0.03, -0.75
> Fc1ccccc1C1=CN2CCN=C2S1
 : /, -1.4
> NC(=O)C1CCN(C(=O)OCCc2cccc(Cl)c2)CC1
 : 0.1, /
> CCNC(=O)CCSc1nc2cc(Cl)ccc2o1
 : /, -0.3
> CC12CCC(=O)N1CCCCN2 (stereo not given)
 : /, 2.8
> COc1cc2c(cc1OC)C(C)N(C(=O)c1ccc(N)cc1)CC2 (stereo not given)
 : -0.79, 0.95
> Cc1cccc(C(=O)NCC(=O)OCc2nc(N)nc(Nc3ccccc3C)n2)c1
 : /, -0.4
> CCOc1ccc(CNC(=O)CCSCc2ccccc2Cl)cc1OC
 : /, -0.55
> CC(C)(C)N=C(NS(=O)(=O)c1ccc(Br)cc1)c1ccccc1
 : 0.82, -0.3

In the list so far, 2 have a furan ring, fused or not:
Every second line gives: CapD inh, AID504770
> O=C(CCCSc1nc2ccccc2[nH]1)NCc1ccco1
 : /, -0.3
> CSc1ccc(C2C(C#N)=C(N)Oc3c2ccc(=O)c2c(C)oc(C)c32)cc1 (stereo not given)
 : -0.23, 1.9

Carrying on:
Every second line gives: CapD inh, AID504770
> c1ccc2c(c1)ncn2CN1CCOCC1
 : -0.31, /
> NS(=O)(=O)c1ccc(N=CC2=C(O)c3ccccc3C2=O)cc1
 : -0.72, -0.15
> Cc1ccc(S(=O)(=O)Nc2ccc3oc(=O)sc3c2)cc1
 : -0.26, -0.05
> CSc1ncc(-c2cnc3ccccc3n2)c(-c2ccncc2)n1
 : 0.77, /
> CCc1ccc(C(=O)CSc2nnc3[nH]c(=O)c(C(C)(C)C)nn23)cc1
 : /, -0.1
> N#CCS(=O)(=O)Cc1ccc(C(=O)O)cc1
 : /, -1.2
> Cn1cccc1P(=Nc1ccccc1)(N1CCOCC1)N1CCOCC1
 : /, -0.05
> CC(C)CC(C(=O)N1CCCc2ccccc21)N1C(=O)c2ccccc2C1=O (stereo not given)
 : /, 0.15
> O=C(O)CCSc1ccccc1Cl
 : 0.02, -1.4
> CS(=O)(=O)c1ccc(-n2cc(-c3ccncn3)cn2)cc1
 : -0.045, /
> Oc1ccc(-c2ccccc2)cc1
 : -0.55, -0.7
> COc1ccc(-c2nc3ccsc3c(=O)o2)cc1
 : 5.5, 0.7
> CC(=O)N1CCC(C(=O)Nc2ccc3nc(C)ccc3c2)CC1
 : 15, -0.05
> Cc1ccn(CO)n1
 : 0.07, -0.65
> Cc1ccc2nc(SCC(=O)Nc3ccc(Cl)c(Cl)c3)[nH]c2c1
 : -0.52, /

Record cards, from the list above. Order of screens: CapD inh, AID504770
Record of CSc1ncc(-c2cnc3ccccc3n2)c(-c2ccncc2)n1 → 0.77, /
Record of CSc1ccc(C2C(C#N)=C(N)Oc3c2ccc(=O)c2c(C)oc(C)c32)cc1 (stereo not given) → -0.23, 1.9
Record of O=C(N/N=C/c1ccccc1Cl)N/N=C/c1ccccc1Cl → -0.57, /
Record of COc1ccccc1OCCn1c(N)nc2ccccc21 → -0.015, -0.8
Record of COc1ccc(-c2nc3ccsc3c(=O)o2)cc1 → 5.5, 0.7

Continuation.
Every second line gives: CapD inh, AID504770
> COc1ccc(C2C(C(=O)N3CCN(c4ccccc4)CC3)c3ccccc3C(=O)N2C)cc1 (stereo not given)
 : -0.7, -0.5
> CC(C)(C)C1CCc2onc(C(=O)Nc3cccc(O)c3)c2C1 (stereo not given)
 : -0.11, -0.35
> COCCOC(=O)C1=C(C)NC(=O)NC1c1cn(-c2ccccc2)nc1-c1ccc(Cl)cc1 (stereo not given)
 : 0.54, /
> O=C(O)c1ccccc1SCCS(=O)(=O)c1cccc(C(F)(F)F)c1
 : 0.71, -0.2
> Cc1nc(CSc2nnc(-c3c[nH]c4ccccc34)o2)cs1
 : /, -0.55
> COc1ccc(-c2c(C#N)c(N)nc3sc(C(=O)c4ccc(Cl)cc4)c(N)c23)cc1OC
 : 0.005, /
> O=C(Nc1cccc(C(F)(F)F)c1)c1cccnc1NCCO
 : /, -0.45
> N#CC(C(=O)c1cccs1)=C1SCCCS1
 : -1.7, 1.1
> C/C(=N\OC(=O)Nc1cccc(Cl)c1)c1sc(-c2ccccc2)nc1C
 : -0.6, /
> CCN(C(=O)c1cccs1)c1cccc2ccccc12
 : -1.4, -0.75
> COc1ccc(C2Nc3ccc(C(=O)c4ccccc4)cc3NC3=C2C(=O)CC(C)(C)C3)c(OC)c1 (stereo not given)
 : -0.2, /
> CC1CC(C)CN(C(=O)c2ccc3ncsc3c2)C1 (stereo not given)
 : /, 0.2
> CCOC(=O)c1c(C)n(-c2ccccc2)c2c1cc(OC(=O)c1ccc(Cl)cc1)c1ccccc12
 : -0.18, /
> Cc1cccc(OCC(O)CN2CCN(Cc3ccccc3)CC2)c1C (stereo not given)
 : 0.16, -0.15
> O=C(CSc1nc2ccccc2o1)N(Cc1cccs1)c1ccc2c(c1)OCCO2
 : /, -0.5
> O=S1(=O)C=C(SCc2ccc(Cl)cc2Cl)Nc2ccccc21
 : 0.2, /
> Cc1ccc2nc(NCC(C)c3ccccc3)c3nnnn3c2c1 (stereo not given)
 : 5.6, -0.25
> CCN(CC)S(=O)(=O)c1cccc(S(=O)(=O)c2ccc(Cl)c(S(=O)(=O)N(CC)CC)c2)c1
 : 0.38, 2.2
> COc1ccc2c(C)cc(-n3nc(C)cc3C)nc2c1
 : 18, -0.2
> COc1ccc(C(=O)Nc2cc(C(=O)Nc3ccc(F)c(F)c3)ccc2N2CC3CC(C2)c2cccc(=O)n2C3)cc1 (stereo not given)
 : 0.3, /
> NS(=O)(=O)c1ccc(CCNC(=O)CCc2nc3sc4c(c3c(=O)[nH]2)CCCC4)cc1
 : -1.1, -0.35
> Nc1n[nH]c2cc(=O)[nH]c(O)c12
 : -0.77, 1.5
> O=C(NCC1CCCN2CCCCC12)c1cccc(Br)c1 (stereo not given)
 : -0.45, -0.8
> S=C(Nc1ccccc1)Nc1ccccn1
 : /, -0.85
> O=C(NCc1ccc2c(c1)OCO2)c1ccc2nc3[nH]c4ccccc4c3nc2c1
 : 2.2, /
> CCc1cc2[nH]c(C(=O)OC)cc2s1
 : -1.4, -0.45
> O=C(Nc1ccc(Cl)cc1C(=O)c1ccccc1)c1ccc([N+](=O)[O-])cc1
 : -0.9, /
> COCc1c(C(=O)Nc2cc(C)cc(C)c2)oc2ccccc12
 : /, -0.95
> O=C(CSc1nc2ccccc2o1)N1CCCC1
 : -0.24, 1.6
> NC1=Nc2cc(C(=O)O)ccc2Sc2ccccc21
 : -0.27, -0.45
> COC(CNc1ncnc2c1c(-c1ccccc1)cn2-c1ccc(Br)cc1)OC
 : 0.01, /
> Cc1cccc(/C=C2/Oc3ccccc3N(CC(=O)N3CCC4(CC3)OCCO4)C2=O)c1
 : 0.22, 1.1
> COc1ccc(-c2nc(N)nc(C(F)(F)F)c2-c2cscn2)c(O)c1
 : -1.1, /
> COC(=O)Cn1c(O)c(N=NC(=O)c2ccc3ccccc3c2O)c2ccccc21
 : -0.44, 1.5
> O=P(c1ccccc1)(c1ccccc1)C1CCS(=O)(=O)C1 (stereo not given)
 : /, -0.2
> CCc1ccc(Oc2coc3cc(OC(=O)c4ccco4)ccc3c2=O)cc1
 : -0.45, 0.3
> CN(CCc1ccccn1)C(=O)Nc1cc(Cl)cc(Cl)c1
 : 1.2, 0.35
> Cc1ccc2c(c1)sc(=NC(=O)c1cccs1)n2C
 : 8.6, 1.1
> COC(=O)c1sccc1NS(=O)(=O)c1cccc2nsnc12
 : -0.22, /
> O=C(CN1CC(=O)Nc2ccccc21)NCCc1ccc(Cl)cc1
 : /, 0.05
> O=C(Nc1cc(Oc2cccnc2)cc([N+](=O)[O-])c1)c1cc2nc(-c3ccco3)cc(C(F)(F)F)n2n1
 : 0.06, /
> COC(=O)c1ccccc1S(=O)(=O)NC(=O)Nc1nc(C)c2c(n1)CCS(=O)(=O)C2
 : 1.5, -0.2
> CCNC(=O)C1CCN(c2nc3c(C)cc(C)cc3s2)CC1
 : 0.69, -0.5
> O=C1c2ccccc2C(=O)N1CC1=NCCc2ccccc21
 : 0.045, 0.85
> CC1(C)Cc2cccc(OCC(=O)NCc3ccc4c(c3)OCO4)c2O1
 : /, -3.5
> N#CC(C#N)=C(N)/C(C#N)=C/c1ccc(-c2cccc(C(=O)O)c2)o1
 : -4*, -0.6
> O=C(NCCSCc1ccccc1)c1ccc(N2CC3CC(C2)c2cccc(=O)n2C3)c(NC(=O)c2cccnc2)c1 (stereo not given)
 : -0.37, /
> Cc1ccc(NCc2n[nH]c(=S)n2C)cc1Cl
 : /, -0.65

High-throughput results deposited in PubChem by ICCB-Longwood Screening Facility, Harvard Medical School.
